Env fusion inh: inhibitors of HIV-1 Env-driven cell-cell fusion, primary screen, HeLa-JRFL effector, CEM21 target cells, luciferase. inhibition, % at 12.3 µM. hit rate 1.1% among 360,000. AID 651610, 2012;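 active means mean replicate inhibition score of at least 50 and every replicate individually at or above 50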;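 further: 0% = plate neutral controls and 100% = maraviroc near 300 nM; one replicate is shown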
eIF4H FP inh: human eIF4H binding inhibitors, primary screen, translation initiation inhibitor project, biochemical, uHTS, fluorescence polarization; Eukaryotic translation initiation factor 4H (Homo sapiens), Q15056; eIF4H fluorescence polarization binding assay; inhibition, % at 35 µM; hit rate 0.94% among 290,000; AID 2012, 2009;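 active means 50% or more with normal probe brightness, or confirmed in later tests; about a fifth of its hits are not listed in these tables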;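 further: calls also rest on retests at 20 µM and on dose response follow-up; 0% = protein and probe with vehicle and 100% = probe without protein; strong numbers were not always called active; many hits fall short of the cut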
Rce1 inh: yeast Rce1p protease inhibitors, primary screen, biochemical, fluorescence, cell-free homogeneous | calls only | AID 2563, 2010 | yeast membranes, quenched prenylated peptide cleavage fluorescence | CAAX prenyl protease 2 (Saccharomyces cerevisiae (strain ATCC 204508 / S288c)), Q03530 | hit rate 0.27% among 290,000;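 active means fall in fluorescence gain of 50% or more versus controls, with final raw signal at or below 3038400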;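 further: plate controls were neutral control wells for no effect and wells lacking membranes for full effect; tested at 10 µM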
UUG fidelity: modulators of yeast start codon fidelity, primary screen, whole organism, S. cerevisiae, single point, plate reader | S. cerevisiae UUG-firefly luciferase reporter, luminescence/redox ratio | activity score, % at 18.7 µM | hit rate 0.13% among 350,000;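 active means replicate mean at a twofold rise or more, about +100% in these data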;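 further: firefly luciferase made from a UUG start codon reports start codon fidelity; reporter light over untreated wells divided by growth signal over untreated wells; some hits fall short of that in this replicate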
MT1-MMP act inh: blockers of MT1-MMP proenzyme processing, primary screen, HT1080 RFP-PRO-GFP cells, GFP/RFP fluorescence | Matrix metalloproteinase-14 (Homo sapiens), P50281 | GFP/RFP ratio fluorescence, overnight; percent of plate control window, DMSO zero | GFP/RFP ratio change, % at 20 µM | hit rate 0.061% among 360,000 | AID 651647, 2012;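 active means GFP/RFP ratio change of at least 30% with cell ATP level not reduced by more than half and red fluorescence within 50% of control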; further: strong numbers were not always called active
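Assay system – RFP-PRO-GFP reporter HT1080 cells · Compound dosing – single dose of 20 µM compound, 1% DMSO final · Incubation – overnight compound exposure at 37 °C · Measure – GFP/RFP fluorescence ratio · Benchmarks – DMSO wells and RFP-L50D-GFP cells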
PABP FP inh: PABP poly(A) RNA binding inhibitors, primary screen, biochemical, fluorescence polarization, uHTS; hit rate 1% among 290,000; inhibition, % at 35 µM; AID 2014, 2009; Polyadenylate-binding protein 1 (Homo sapiens), P11940;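 active means 50% or more with normal probe brightness, or confirmed in later tests; about a fifth of its hits are not listed in these tables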;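 further: calls also rest on retests at 20 µM and on dose response follow-up; controls were probe without protein and protein plus probe with vehicle; some compounds called inactive have numbers as strong as hits; many hits fall short of the cut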
Target sequence (P11940 whole entry, looked up): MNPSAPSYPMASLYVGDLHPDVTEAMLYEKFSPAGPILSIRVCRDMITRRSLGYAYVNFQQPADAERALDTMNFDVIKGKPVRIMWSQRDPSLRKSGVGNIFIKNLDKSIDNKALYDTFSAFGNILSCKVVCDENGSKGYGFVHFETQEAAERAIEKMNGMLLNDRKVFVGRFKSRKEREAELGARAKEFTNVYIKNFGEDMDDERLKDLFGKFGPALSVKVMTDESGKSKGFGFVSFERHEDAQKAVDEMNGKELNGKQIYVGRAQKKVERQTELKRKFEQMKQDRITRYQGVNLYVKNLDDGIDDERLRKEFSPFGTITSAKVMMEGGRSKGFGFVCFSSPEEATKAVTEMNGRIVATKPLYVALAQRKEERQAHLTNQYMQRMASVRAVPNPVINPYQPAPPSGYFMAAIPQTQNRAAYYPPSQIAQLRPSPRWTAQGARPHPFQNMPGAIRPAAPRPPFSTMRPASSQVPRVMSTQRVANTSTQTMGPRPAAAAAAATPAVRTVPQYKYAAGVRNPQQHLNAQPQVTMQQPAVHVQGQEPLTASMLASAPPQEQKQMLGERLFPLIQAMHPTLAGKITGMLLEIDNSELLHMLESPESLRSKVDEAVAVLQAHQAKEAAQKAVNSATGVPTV
CSC inhib: cancer stem cell viability inhibitors, primary screen, luminescence; hit rate 1.1% among 300,000; cancer stem cell-like cells viability; inhibition, % at 7.5 µM;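 active means mean at 75% or more and at least half the replicates too; tested in HMLE shEcad cells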;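 further: 0% = median of negative and 100% = median of positive control wells; the first replicate is given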
MT1-MMP act inh RFP: second read-out of MT1-MMP act inh, no call of its own (marks repeat the call); RFP signal change, %; measured here: RFP expression control read;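 0 = vehicle wells; hits needed this value within 50% of zero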
The depositor's hits bear a star; i = inactive; / = no result given.

SMILES	Env fusion inh	eIF4H FP inh	Rce1 inh	UUG fidelity	MT1-MMP act inh	MT1-MMP act inh RFP	PABP FP inh	CSC inhib
CC(=O)Nc1ccc(S(=O)(=O)Nc2cccc(-c3ccc4nncn4n3)c2)cc1	21	-12	i	/	-4	-2	43	-10
COc1ccccc1C(=O)NC(=O)COC(=O)Cc1n[nH]c(=O)c2ccccc12	-50	/	i	-13	0	4	/	8
COc1ccccc1C1CC(=O)Nc2cc(C)c(C)cc21 (stereo unspecified)	6	-4	i	-24	-7	-14	-1	39
CN1CCN(CC(=O)NN(Cc2ccccc2)c2ccccc2)CC1	-21	9	i	-2	2	2	-1	-13
Cn1cc(/C=C/C(=O)c2ccccc2)c2ccccc21	-171	-6	i	-32	-15	-8	-8	17
OC(CNCc1ccccn1)c1ccccc1 (stereo unspecified)	3	13	i	/	3	2	2	-11
O=C(c1ccco1)N1CCN(c2c([N+](=O)[O-])nn(-c3cccc(Cl)c3)[n+]2[O-])CC1	11	-9	i	1	6	-4	-3	-3
COC(=O)CN1C(=O)C(C)(C)Oc2ccc(C(=O)Nc3cccc(OC)c3)cc21	7	-3	i	-6	4	-5	2	-21
CCOCCCNC(=O)C1CCC(CNS(=O)(=O)c2cccc3nsnc23)CC1 (stereo unspecified)	3	7	/	5	-35	-55	6	/
Cc1ccc(CN2CCc3c(OCC(=O)Nc4cc(C)ccc4C)cccc3C2=O)cc1	/	2	i	/	/	/	-16	8
Cc1nc2cc(-c3ccccc3)nn2c(C)c1CCC(=O)N1CCN(c2ccccc2)CC1	-3	2	i	10	2	1	-1	-8
O=C(Nc1ccc(N2C(=O)C3C4C=CC(C4)C3C2=O)cc1Cl)c1cccs1 (stereo unspecified)	0	13	i	/	4	4	3	-10
CCN1CCN(C(c2cccs2)C(C)NC(=O)c2ccccc2OC)CC1 (stereo unspecified)	0	-3	i	-13	-7	-3	-1	-18
COCc1cc(C)n(CC(=O)NCC2CCCO2)c(=O)c1C#N (stereo unspecified)	-4	-6	i	-12	1	5	-2	-2
CCN1CCN(S(=O)(=O)c2ccc3c(c2)OCCO3)CC1	-49	-9	i	-2	0	2	-2	/
CCCSc1ncnc2[nH]ncc12	-40	/	/	-19	-7	2	/	/
O=S(=O)(Nc1nc(SCc2ccc(Cl)cc2)n[nH]1)c1ccccc1	25	-5	i	-15	4	-2	1	3
O=c1c2sccc2n(Cc2ccc(F)cc2)c(=O)n1-c1ccc(F)cc1	6	-9	i	/	-1	4	12	-12
CN1CCN(C(=O)c2cc3sc4ccccc4c3s2)CC1	-42	3	i	-34	1	-2	-8	13
COc1cc(/C=N/Nc2nnc3c(n2)[nH]c2ccccc23)ccc1O	/	-4	i	-23	5	0	2	4
CC1CCN(S(=O)(=O)c2ccc(F)c(C(=O)O)c2)CC1	/	-9	i	1	5	5	-4	-18
CCCc1ccc(S(=O)(=O)NCc2nnc(SC)n2C)cc1	-26	-1	i	-5	-2	1	-8	-1
COc1cc(OC)c(NC(=O)c2cc(S(=O)(=O)N3CCOCC3)cn2C)cc1Cl	4	-16	i	-6	-4	2	27	-5
C=CCSC1=C(C#N)C(c2ccccc2Cl)C(C(=O)c2cccs2)C(O)(C(F)(F)F)N1 (stereo unspecified)	/	-8	i	1	-10	-11	2	0
Cc1csc(NC(=O)CSc2nc(C(C)C)nc3c2c(=O)n(C)c(=O)n3C)n1	12	-3	i	-10	-6	-3	0	/
Cc1c(Br)c(C(F)(F)F)nn1CC(=O)NCC1CCCO1 (stereo unspecified)	/	-5	i	-13	2	2	3	-5
CCOC(=O)C1(Cc2ccccc2C)CCCN(C(=O)CCC(=O)OC)C1 (stereo unspecified)	-11	-7	i	0	1	-1	6	0
COc1ccc(OC)c(NC=C2C(=O)OC3(CCCCC3)OC2=O)c1	-17	-9	i	2	-2	-3	4	7
COc1ccc(NC(=O)c2cc3c(=O)n(C)c4ccccc4c3n2C)cc1OC	-7	-1	i	1	5	0	6	13
N#C/C(=C\c1cccc([N+](=O)[O-])c1)C(=O)NCc1ccc(Cl)cc1	-42	-2	/	/	-1	-5	-4	/
CCCC1=Nc2cc(C(=O)NCc3ccco3)ccc2Sc2ccccc21	-5	-10	i	-7	7	-9	13	47
COCCCNC(=S)Nc1cccc(S(=O)(=O)NC2=NCCC2)c1	14	6	i	7	2	6	-1	-7
O=C(/C=C/c1ccc(Cl)cc1Cl)NCCSc1ccccc1	19	5	i	/	4	2	1	36
COc1ccc(NS(=O)(=O)c2cn(C)nc2C)cc1	-4	1	i	-19	1	3	-14	-17
CCC(O)c1cc2c(cc1NC(=O)c1cccs1)OCCO2 (stereo unspecified)	/	-2	i	-4	3	2	0	1
CC(C)(C)NS(=O)(=O)c1ccc(NC(=S)NC(=O)C2CCC2)cc1	-3	-1	/	-8	2	-3	-18	5
COc1ccc2cc(C)c3nnc(SCc4cccnc4)n3c2c1	-12	-8	i	/	-2	-5	1	-5
COc1ccc2[nH]c(C(=O)N/N=C/c3ccc(OC)c(O)c3)cc2c1	-468	-10	i	/	6	-9	-2	48
O=C(OCc1ccccc1)N1CCC2CC1c1cc(-c3ccc(F)cc3)ccc12 (stereo unspecified)	8	/	/	-32	-2	1	/	/
CC/C(O)=C(/C#N)c1nnc2n1CCCCC2	/	0	/	-15	0	0	1	/
NS(=O)(=O)c1ccc(NC(=O)c2cc(=O)c3ccccc3o2)cc1	9	-13	/	-16	2	1	6	-11
CC(C)C1C(=O)NC(=S)N1S(=O)(=O)c1ccc(C(C)(C)C)cc1 (stereo unspecified)	/	0	i	-51	1	-3	-1	12
CCOC(=O)C1=NNC2(c3ccccc3)C(=O)N(c3cccc(Br)c3)C(=O)C12 (stereo unspecified)	/	-5	i	/	2	7	-8	-3
CC(C)(C)NC(=O)CCN(/N=C/c1ccccc1O)C1=NS(=O)(=O)c2ccccc21	6	9	i	-2	0	2	6	-14
COc1ccc(-c2coc3c(C(=O)NCC(C)C)cccc23)c(C)c1	23	/	/	-13	-11	-25	/	/
Cc1cccc(N2CCN(C(=O)c3csc4ccccc34)CC2C)c1 (stereo unspecified)	39	-8	i	-10	1	1	0	-8
COc1ccc(C(=O)Nc2nc3ccccc3s2)cc1OC	-98	-3	i	14	0	0	4	-4
COc1cc(C(=O)N2CCCC(c3cc(C(=O)NCc4ccc(F)cc4)no3)C2)cc(OC)c1C (stereo unspecified)	-8	/	/	-10	-1	-9	/	/
Cc1ccc(S(=O)(=O)NCc2cccc([N+](=O)[O-])c2)cc1	-8	/	/	-12	4	0	/	/
CN(C)CCSc1nc(-c2ccccc2)nc2c1CCCC2	11	-14	i	5	-3	-3	15	-10
COc1ccc(OCc2cc(C(=O)N(C)C3CCOCC3)no2)c2ccccc12	-43	-8	i	16	-4	3	2	0
O=C(CNCc1ccco1)Nc1cc(S(=O)(=O)N2CCOCC2)ccc1N1CCOCC1	12	/	/	-9	-2	0	/	-10
COc1ccc(-c2cc(C(F)(F)F)nc(S(=O)(=O)CCCC(=O)Nc3cccc(O)c3)n2)cc1OC	-9	-1	i	-9	-3	-4	20	/
N#Cc1c(Sc2ncc(C(F)(F)F)cc2Cl)nsc1C/C=N\OCc1c(F)cccc1Cl	/	18	i	-5	-14	8	12	29
COc1ccc(NC(=O)CC2C(=O)N(c3ccc(OC)cc3)C(=O)N2CCc2cccs2)cc1 (stereo unspecified)	-17	-9	i	12	-2	-2	3	-15
Cc1oc(C(=O)O)cc1COc1ccccc1Cl	19	0	i	-11	/	/	4	-3
O=C(Sc1ccc(Cl)cc1)c1ccccn1	4	/	i	/	-6	-4	/	10
COc1ccc(CCN2CN(S(=O)(=O)c3ccccc3)c3nc4ccccc4nc32)cc1OC	8	-6	i	/	-1	-2	-12	4
Cc1cccc(C)c1NC(=O)CSc1nnc(-c2ccccc2)n1Cc1ccc2c(c1)OCO2	13	2	/	4	1	-3	3	-8
CCOC(=O)CCC(NC(=O)c1ccc(NCN2C(=O)c3ccccc3C2=O)cc1)C(=O)OCC (stereo unspecified)	/	-3	i	10	-2	0	-6	1

Complete entries as entered above.
`Cc1oc(C(=O)O)cc1COc1ccccc1Cl` is listed with Env fusion inh = 19; eIF4H FP inh = 0; Rce1 inh = i; UUG fidelity = -11; MT1-MMP act inh = /; MT1-MMP act inh RFP = /; PABP FP inh = 4; CSC inhib = -3
`COc1ccccc1C1CC(=O)Nc2cc(C)c(C)cc21` (stereo unspecified) is listed with Env fusion inh = 6; eIF4H FP inh = -4; Rce1 inh = i; UUG fidelity = -24; MT1-MMP act inh = -7; MT1-MMP act inh RFP = -14; PABP FP inh = -1; CSC inhib = 39
`Cc1nc2cc(-c3ccccc3)nn2c(C)c1CCC(=O)N1CCN(c2ccccc2)CC1` is listed with Env fusion inh = -3; eIF4H FP inh = 2; Rce1 inh = i; UUG fidelity = 10; MT1-MMP act inh = 2; MT1-MMP act inh RFP = 1; PABP FP inh = -1; CSC inhib = -8

Later entries:
SMILES	Env fusion inh	eIF4H FP inh	Rce1 inh	UUG fidelity	MT1-MMP act inh	MT1-MMP act inh RFP	PABP FP inh	CSC inhib
Cc1cc(N2C(=O)C3C4CCC(C4)C3C2=O)no1 (stereo unspecified)	5	5	i	/	0	3	17	13
O=C(NCCc1ccc(Cl)cc1)c1ncn[nH]1	/	1	i	-16	0	5	2	10
CCS(=O)(=O)N1Cc2ccccc2CC1C(=O)Nc1nnc(SCc2ccc(C#N)cc2)s1 (stereo unspecified)	-10	14	i	/	3	-2	1	30
Cc1cccc(NC(=S)NC2CCCC2)n1	5	2	i	/	-3	-6	2	-8
COC(=O)COc1cccc2c(=O)n(CC(=O)NCc3ccccc3)ccc12	-188	-3	i	/	3	-6	3	55
Cc1ccccc1Nc1c(-c2ccc(N3CCOCC3)cc2)nc2cnccn12	-38	3	i	-14	2	-1	-5	/
COc1ccc(N2C(=O)CN=C2Nc2nc(C)cc(C)n2)cc1	-10	8	i	-17	0	1	-6	-12
C=CCN1C(=O)NC2(CCCCC2)C1=O	14	1	i	-21	-3	-1	4	9
NS(=O)(=O)c1ccc(NC(=O)CSC2CCCCC2)cc1	7	10	i	-2	3	9	0	-14
CCCCCOC(=O)C1[C@H]2C(=O)N(Cc3cccs3)C[C@]23C=C[C@H]1O3 (stereo partly specified)	11	8	i	1	1	5	-1	9
CCC(C)NC(=O)N[C@@H](CCSC)C(=O)OC (stereo partly specified)	-33	3	i	-7	2	1	-3	-4
COc1ccc(N2CCN(CCCn3c(=S)[nH]c4ncccc4c3=O)CC2)cc1	-66	-2	i	-12	7	-3	-5	-10
O=C(OCc1ccc(F)cc1)c1cc2ccccc2cc1O	-63	-6	i	-16	-5	-2	5	-7
COc1ccc(N2CCN(CCNC(=O)Nc3ccc(Cl)cc3)CC2)cc1	/	0	i	-14	4	-10	-6	4
Cc1cc(-c2ccccc2)nc(Oc2ccc(C(C)(C)C)cc2)c1S(C)(=O)=O	/	-9	i	-8	-10	-12	7	40
O=C(NCc1ccccc1Cl)C1CCN(S(=O)(=O)c2cccc3nonc23)CC1	-1	10	/	-14	-1	0	5	7
C[C@H](NC(=O)c1ccco1)C(=O)NCc1cccs1	10	/	/	-4	2	1	/	-5
COc1ccc(C(C)=O)cc1COC(=O)c1ccc2ccccc2n1	-18	-5	i	-3	1	3	22	-14
CC(C)OC(=O)c1ccccc1C(=O)c1ccc(N)c([N+](=O)[O-])c1	13	-3	i	/	-6	-3	2	3

Bioassay records (PubChem BioAssay)
